High-throughput results as filed in PubChem BioAssay.
CDC25B CDK2 inh – primary biochemical HTRF screen for blockers of M-phase inducer phosphatase 2 binding to CDK2/cyclin A; P30305+P24941; HTRF CDC25B-CDK2/CyclinA binding, anti-His/anti-Flag; hits give high values; z-score (no concentration beside the values); hit rate 0.72% among 94,000; AID 1259370, 2018;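 note: score is relative to mean and SD of negative controls; strong numbers were not always called active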
TAR Tat displ – TAR RNA-Tat peptide displacers, HIV-1, primary screen, biochemical, FRET, FAM/TAMRA-labeled Tat; HIV-1 TAR RNA, Tat peptide displacement FRET; hits give high values; hit rate 0.6% among 100,000; AID 1259389, 2018; z-score (concentration not given with the values);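 note: score is relative to mean and SD of negative controls; some compounds called inactive have numbers as strong as hits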
Starred values were filed as active, the others as inactive; · = not tested or not shown.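 Rule for the calls: active = z-score from 3 up in half or more of its runs; inactive = the rest.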

Molecule,CDC25B CDK2 inh,TAR Tat displ
Cc1sc2ncnc(Oc3ccc4ccccc4c3)c2c1C,-0.94,0.54
Cn1ncc2c(N3CCOCC3)ncnc21,·,1.13
CCN(c1ccccc1)S(=O)(=O)c1cc(-c2onc(C)c2C)ccc1C,·,0.41
CCc1nc(SCC(=O)N2CCN(c3ccccc3)CC2)c2c(=O)n(C)c(=O)n(C)c2n1,·,-0.36
COc1cc(-c2ccc(/C=C3\SC(=N)N(c4nccs4)C3=O)o2)c(OC)cc1Cl,-2.34,·
CC(C)Cc1nc(SCc2cc(=O)n3ccsc3n2)n[nH]1,·,-0.79
O=c1c(Cl)c(Oc2cccc(C(F)(F)F)c2)cnn1-c1ccccc1,1.16,·
O=C(CCC(=O)N1CCOc2ccc(Cl)cc21)NCCC1=CCCCC1,0.68,0.87
COc1ccc(-c2nnc3c4cc(OC)c(OC)cc4n(Cc4ccccc4OC)cc2-3)cc1,-1.96,-0.19
CS(=O)(=O)c1ccc(-c2ccc(NC(=O)C(c3ccccc3)c3ccccc3)cc2)nn1,·,-0.67
COCCN1CCN(C2CCN(C(=O)NC3CCCCC3)CC2)C(=O)C1=O,·,0.8
C=C(C)Cn1c(-c2ccc(OC)c(OC)c2)nc2ccccc21,-1.38,2.15
CCC(C)n1nccc1NC(=O)COc1ccc(Br)cc1 (configuration not stated),-1.02,0.83
C=CCSc1nc2ccccc2n1C(=O)CCN1C(=O)c2cccc3cccc(c23)C1=O,-4.99,·
Cn1c(=O)oc2cc(S(=O)(=O)N(Cc3ccco3)C(=O)C3CCCCC3)ccc21,-0.65,-1.1
N/C(=N\OC(=O)c1cccs1)c1nccnc1Oc1cccc(C(F)(F)F)c1,-2.14,·
COC(=O)c1cc(COc2ccc3c4c(c(=O)oc3c2)CCCC4)c(C)o1,-0.49,·
Cc1ccc(CN2CCSc3ccc(C(=O)O)cc32)cc1,-1.7,-0.26
CC(=O)Cn1cc(Cl)c(=O)c(Cl)c1,-1.03,·
COc1ccccc1/C=N/NC(=O)COc1ccc(-c2cc(-c3ccccc3)c3cc(Cl)ccc3n2)cc1,-3.08,·
O=C(c1ccc(Cl)c(NC2=NC3CS(=O)(=O)CC3S2)c1)N1CCN(c2ccccc2)CC1 (configuration not stated),·,0.16
CC1CN(C(=O)Nc2ccccc2Cl)c2cc(Cl)ccc2O1 (configuration not stated),-0.98,-0.19
N#CC1=C(N)OC2=C(C(=O)CCC2)C1c1ccc(Cl)cc1 (configuration not stated),0.08,·
O=C(Nc1nc2n(n1)C(c1ccc(F)cc1)C=C(c1ccc(Cl)cc1)N2)c1cccs1 (configuration not stated),-2.11,0.75
CC(=O)Nc1ccc(-n2sc3c(c2=S)-c2ccccc2NC3(C)C)cc1,-6.99,1.52
Cc1ccc(N(Cc2cc(=O)n3ccccc3n2)C2=NC3CS(=O)(=O)CC3S2)cc1C (configuration not stated),0.41,1.71
CCN(CC)c1ccc(C2CC(=O)C3=C(C2)Nc2ccccc2NC3c2ccco2)cc1 (configuration not stated),1.24,24.7*
Cc1ccccc1-c1ccc2ccccc2n1,0.62,·
O=c1cc(-c2ccccc2)ss1,-1.19,·
Cc1ccccc1-c1nc(Cn2c(=O)cc(C)c3c(C)nn(C)c32)c(C)o1,·,0.86
O=C(O)c1ccccc1SCc1cc(=O)n2nc(-c3ccco3)sc2n1,-0.88,0.08
Cc1cc(=O)n2[nH]cc(-c3ccccc3)c2n1,-2.01,3.45
Cc1oc2ncnc(N3CCCCC3)c2c1C(=O)NCCN(C)C1CCCCC1,·,0.66
CC1CCN(c2ccc3nnc(CCC(=O)N4CCN(C)CC4)n3n2)CC1,·,-1.59
CC1C(=O)Nc2ccc(S(=O)(=O)NCC3CCCO3)cc2NC1=O (configuration not stated),-0.29,0.82
CCn1ncc(C2=NOC(C(=O)Nc3cc(C)nn3-c3ccccc3)C2)c1C (configuration not stated),-0.23,-0.2
CC(=O)c1ccc(NC(=O)CSCC(=O)O)cc1,0.77,·
CCN(CC)S(=O)(=O)c1cc2[nH]c3c(c2cc1C)C(=O)CC(C)(C)C3,·,0.72
O=C1c2ccccc2S(=O)(=O)N1CC1CC1,-0.81,·
CCOC(=O)c1[nH]c2c(c1C)C(=O)CC(c1ccccc1)C2 (configuration not stated),-1.03,·
O=C(NC1CCCC1)c1cc(NS(=O)(=O)c2ccc(F)cc2)ccn1,·,-0.53
Cc1c(CC(=O)NN)sc2ccc(Cl)cc12,1.02,·
Cn1cnnc1Sc1nc2c(c(=O)n(C)c(=O)n2C)n1Cc1ccc(F)cc1,-1.78,0.07
CCCn1c(COc2ccc(Cl)cc2)nc2ccccc21,-1.75,·
CCN(Cc1ccccc1)S(=O)(=O)c1ccc(Cc2c(C)[nH]c(=O)c(C#N)c2C)cc1,-0.69,-2.35
CCc1nn(CC(=O)NC2CCCC(C)C2C)c(=O)c2cc3sc(C)cc3n12 (configuration not stated),-0.86,0.83
Cc1ccc(CNC(=O)C2CCN(c3nn4c(=O)c5c(nc4s3)CCCC5)CC2)o1,·,0
COc1ccccc1NC(=O)c1c(O)c2ccccc2n(C)c1=O,0.47,·
O=C(c1ccc(CNc2c(N3CCCC3)c(=O)c2=O)cc1)N1CCN(C2CCCCC2)CC1,-0.15,3.23
Fc1ccccc1CN1CCN(Cc2c[nH]c3ccccc23)CC1,0.31,2.34

Among those listed so far, 5 contain a thiophene ring, fused or not.
Molecule,CDC25B CDK2 inh,TAR Tat displ
Cc1sc2ncnc(Oc3ccc4ccccc4c3)c2c1C,-0.94,0.54
N/C(=N\OC(=O)c1cccs1)c1nccnc1Oc1cccc(C(F)(F)F)c1,-2.14,·
O=C(Nc1nc2n(n1)C(c1ccc(F)cc1)C=C(c1ccc(Cl)cc1)N2)c1cccs1 (configuration not stated),-2.11,0.75
Cc1c(CC(=O)NN)sc2ccc(Cl)cc12,1.02,·
CCc1nn(CC(=O)NC2CCCC(C)C2C)c(=O)c2cc3sc(C)cc3n12 (configuration not stated),-0.86,0.83

(further entries)
Molecule,CDC25B CDK2 inh,TAR Tat displ
O=C(CSc1ccc2nnc(-c3cccc(F)c3)n2n1)N1CCOCC1,-2.03,·
COc1ccc(S(=O)(=O)c2cnc3ccc(OC)cc3c2N2CCCC(C)C2)cc1 (configuration not stated),-0.81,2.03
CCOc1ccc(NS(=O)(=O)c2c(C)nc3scc(C)n3c2=O)cc1,-1.07,0.8
COc1cccc(-c2nnc3sc(CN4CCc5ccccc54)cn23)c1,·,1.65
CC1(C)OC[C@@H]([C@H](O)[C@H](O)[C@H]2COC(C)(C)O2)O1,-1.61,·
OC(Cn1cnc(-c2ccccc2)c1-c1ccccc1)Cn1ccc2ccccc21 (configuration not stated),2.43,0.39
c1csc(-c2noc(-c3cnccn3)n2)c1,-1.6,-0.57
Cc1sc2ncn(CC(=O)NCCCN3CCCC3)c(=O)c2c1S(=O)(=O)N1CCC(C)CC1,-1.45,-0.07
Cc1cc(=O)oc2c1ccc1oc(C(=O)c3ccc(Cl)cc3)c(C)c12,1.29,·
O=C(O)c1cc(-c2ccc(O)cc2)nc2ccc(Br)cc12,-1.15,·
COCCNC(=O)c1c(C)oc2ncnc(N3CCCCC3)c12,·,0.12
CCSc1nnc2c(n1)OC(c1ccc(C(=O)O)cc1)Nc1ccccc1-2 (configuration not stated),-0.64,0
O=C1CC2(CC(Cl)N=N2)C(=O)N1c1ccc(F)cc1 (configuration not stated),1.35,·
Clc1ccc(OCc2nnc(SCCOc3ccccc3)o2)cc1,-0.11,2.22
Cc1nc(-n2cccc2)sc1C(=O)NCCN1CCOCC1,-0.16,0.27
O=C(COc1ccc(Cl)cc1)Nc1nc(-c2ccc(Br)o2)ns1,-1.53,0.76
COc1ccc(C(=O)c2cn(Cc3ccc(C)cc3)c3cc4c(cc3c2=O)OCCO4)cc1OC,-0.75,-1.05
O=C(Nc1cccc(Cl)c1)Nc1cccc(Cl)c1,-0.46,·
CCC1(C(=O)c2ccccc2)C2c3cc(Br)ccc3OC(=O)C21C(=O)c1ccco1 (configuration not stated),-0.78,·
COc1ccc(C2C(C#N)=C(C)NC(C)=C2C#N)cc1,-0.22,·
Cn1c(N2CCOCC2)nc2c1c(=O)n(Cc1cccc(Br)c1)c(=O)n2C,-0.06,-0.06
O=C(O)Cn1cc(C(=O)c2cccs2)c2ccccc21,-1.24,-0.75
O=C(CSC(=S)N1CCSCC1)c1ccc(Cl)cc1,0.51,·
CCCN(CCC)C(=O)C1Sc2nnc(C)n2NC1c1ccc(C)cc1 (configuration not stated),-2.25,0.5
CN(CCNC(=O)Cn1ncc2c1-c1ccccc1OC2)Cc1ccccc1,0.4,-0.08
O=C(CNC(=O)c1ccc(Cl)cc1)c1ccc(Cl)cc1,-1.43,·
Cc1nn(-c2nc3ccc(Br)cc3s2)c2c1C(c1c(F)cccc1F)CC(=O)N2 (configuration not stated),·,1.08
CCN(C(=O)CN1C(=O)N(c2cc(F)ccc2F)S(=O)(=O)c2ccccc21)c1ccccc1,·,0.33
COC(=O)C1=C(C)NC2=C(C(=O)CC(C)(C)C2)C1c1ccc(OCc2ccc(Cl)cc2)c(OC)c1 (configuration not stated),-1.35,1.74
O=C(CN1C(=O)CSc2cccn2-c2ccccc21)N1CCN(c2ccccc2)CC1,·,0.33
COCCN(Cc1ccco1)C(=O)c1cc2c(s1)-c1ccc(Cl)cc1S(=O)(=O)C2,-2.7,2.16
CCC1CCCCN1CCCNC(=O)c1sc2nc3n(c(=O)c2c1C)CCC3 (configuration not stated),·,0.68
O=C(O)CCc1nn2c3ccccc3n(CC(=O)c3ccc(Cl)cc3)c2nc1=O,0.47,·
CCc1ccc(N2C(=O)N(c3ccc(F)cc3)C3CS(=O)(=O)CC32)cc1 (configuration not stated),-1.02,1.05
COc1ccccc1Cn1c(CN)nc2cccnc21,-0.75,0.67
O=C1C(=O)N(c2ccccn2)C(c2cccc(Br)c2)/C1=C(\O)c1ccc(Cl)cc1 (configuration not stated),1.52,0.5
Clc1ccc2c(c1)nc1n2CCN(C2CCCCC2)C1,0.01,-4.35
O=C(O)CNC(=O)c1cccc([N+](=O)[O-])c1,-1.58,·
Cc1ccc(CSc2nnc(-n3c(=O)c(C#N)cc4c(=O)n5cccc(C)c5nc43)s2)cc1,-2.98,2.08
COc1ccc(-c2nc3ccccc3o2)cc1NC(=O)c1cc2ccccc2cc1OC,-3.09,·
Cc1nn(CC(=O)N2CCN(c3ccc(Cl)cc3)CC2)c(=O)c2cc3sccc3n12,-1.62,-0.12
CCOC(=O)CSc1nnc(CSc2nc(C)cc(C)n2)n1-c1ccccc1,-0.81,1.92
COc1nc(N)nc(CC(=O)C2CC2)n1,·,1.39
Cc1cnc(NS(=O)(=O)c2ccc(Cl)cc2)c(Br)c1,-0.5,·
CC(=O)N1CCN(c2nn3nnnc3c3ccccc23)CC1,-0.44,0.35
CCCc1cc(=O)[nH]c2nnc(SCC(=O)Nc3nc(C)cs3)n12,·,0.14
COc1ccc(Nc2nc(Cl)nc(NC(C)C)n2)cc1,-1.09,·
Cc1cccc(-n2c(SCc3nc(-c4ccccc4C)no3)nnc2-c2ccncc2)c1,0.11,0.41
COc1ccc(C2SCCN2S(=O)(=O)c2cccc(C)c2)cc1 (configuration not stated),-0.61,0.91
CCOC(=O)c1ccc(NC(=S)N(CCC#N)C2CCCCC2)cc1,-0.33,·

More entries
Molecule,CDC25B CDK2 inh,TAR Tat displ
CC(C)Sc1nnnn1-c1ccccc1,-1.01,-1.15
C/C(=N\NC1=NCCN1Cc1ccccc1)c1ccc(Cl)cc1,-1.53,·
Cc1cc(Nc2ccccc2)nc(N2CCN(S(=O)(=O)c3ccc4nc(C)sc4c3)CC2)n1,·,1.35
N#C/C(N)=C(\C#N)N=Cc1ccc(C(F)(F)F)cc1,-1.73,·
CCCc1cc(=O)[nH]c2c1c(C)nn2-c1ccc(F)cc1,·,1.09
CN(CC(=O)NC1CCCc2ccccc21)S(=O)(=O)c1ccc2c(c1)c(=O)n(C)c(=O)n2C (configuration not stated),-1.01,-0.21
Cc1cc2oc3c(c(=O)c2cc1C)C(c1cccc(Cl)c1)N(CCCN(C)C)C3=O (configuration not stated),-2.43,1.64
CSc1ccc(CNC(=O)CN=C2NS(=O)(=O)C(c3ccc(C)c(C)c3)=C2C)cc1,·,1.77
Cc1ccc(C)c(Oc2coc3cc(OC(C)C(=O)OCC(C)C)ccc3c2=O)c1 (configuration not stated),-3.34,·
Cc1ccc(Oc2nc3ccccc3n3c(C)nnc23)c(C)c1,-0.34,·
Nc1nc(NC2CCCCC2)nc(Nc2ccccc2)c1[N+](=O)[O-],·,1.13
O=C1CC(O)(C(F)(F)F)Oc2ccc(Cl)cc21 (configuration not stated),-1.65,·
COc1cc(NC(=O)CSc2nc3ncccc3[nH]2)cc(OC)c1,·,0.81
CC(=O)Nc1nc2ccccc2n1CCN(C)C,0.27,1.85
Cc1ccc(NS(=O)(=O)c2ccc(-c3ccc(=O)[nH]n3)o2)cc1,·,0.53
Cc1ccccc1-n1nnc(-c2nc(-c3cccs3)no2)c1N,·,0.93
CC1CCCCN1CCCn1cnc2c([nH]c3ccccc32)c1=O (configuration not stated),-0.96,1.71
Cc1ccc(C2=NN(C(=O)CCCc3ccccc3)C(O)(C(F)(F)F)C2)cc1 (configuration not stated),-2.15,·
